# Chronic BCR inh: inhibitors of chronic active B-cell receptor signaling; ABC-DLBCL IkBa-CBG/CBR reporter, luminescence ratio, 4 h; 340,000 tested, 0.05% active; Potency, µM (top dose mostly 46.1 µM), for the others: at the top dose ratio change, negative = lower green/red ratio, hits mostly inhibitors; AID 493014; active means well fitted inhibition curve with a large enough effect in the signal ratio, with a control signal flat, not every such curve was filed as active; inconclusive means small, poorly fitted or top-dose-only effect, or effect the other way, or a change in a side signal; the % refers to the signal ratio;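 further: potency means the concentration at half of the fitted maximal effect; plate controls were basal doxycycline-induced cells for no effect and cells given 10 µM MG132 for full effect; MG132 reads +100%, hits lower the ratio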
#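 TMD8 ABC-DLBCL cells carrying doxycycline-inducible green luciferase fused to IkappaBalpha plus unfused red luciferase were exposed to compounds (up to 46 uM) for 4 hrs at 37C. Activity came from the overlap-corrected green/red luminescence ratio.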
# TCR act: activates T cell receptor signaling; primary human leukocytes, anti-CD3, IL-2 HTRF, 48 h; Potency, µM (top dose mostly 9.22 µM), for inactives: at the highest dose activation of IL-2 secretion, usual class: activators; 330,000 tested, under 10 active; AID 504894; further: % of control where 0% means no effect
#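 Primary human leukocytes receive a-CD3 beads and test compound and are incubated 48 hr. Secreted IL-2 is then assayed by HTRF, measuring 665nm acceptor emission after 320nm excitation of the europium donor.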
# GALK inhibitor: galactokinase (human) inhibition; P51570; Purified GALK, Kinase-Glo residual ATP luminescence; Potency, µM (top dose mostly 57.5 µM), for inactives: at the highest dose activity change, negative = inhibition, actives largely listed as inhibitors; 270,000 tested, 0.007% active; AID 1868; further: potency means the concentration at half of the fitted maximal effect; on the % scale 0 is the no-effect control and ±100 the full control effect
# Target sequence (P51570 whole entry, looked up): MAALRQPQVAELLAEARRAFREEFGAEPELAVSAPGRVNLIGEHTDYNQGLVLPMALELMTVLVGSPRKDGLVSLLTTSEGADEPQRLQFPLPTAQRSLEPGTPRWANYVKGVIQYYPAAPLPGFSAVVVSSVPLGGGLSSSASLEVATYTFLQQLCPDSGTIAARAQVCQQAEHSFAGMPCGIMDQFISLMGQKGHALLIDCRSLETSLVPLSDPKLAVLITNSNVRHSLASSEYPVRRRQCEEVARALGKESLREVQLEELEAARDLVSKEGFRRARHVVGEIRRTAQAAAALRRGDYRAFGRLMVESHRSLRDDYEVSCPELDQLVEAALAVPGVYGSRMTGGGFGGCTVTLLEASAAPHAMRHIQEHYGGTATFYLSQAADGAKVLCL
#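 5 nM enzyme, 35 uM ATP, 100 uM galactose, 20 mM HEPES pH8.0, 5 mM MgCl2; 1 h RT; residual ATP by Kinase-Glo Plus luminescence, qHTS format.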
# AT treatment: potential ataxia-telangiectasia treatments restoring KAP-1 phosphorylation; […] A-T fibroblasts, KAP-1 phosphorylation AlphaLISA; neocarzinostatin DNA damage 30 min before lysis; Potency, µM (highest dose often 57.5 µM), without a hit: top-dose activation, actives largely listed as activators; 320,000 tested, 0.19% active; AID 485349; further: potency means the concentration at half of the fitted maximal effect; % of control where 0% means no effect; nearly all actives have a fitted effect of over 45% in size
#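 ATM-like activity read as KAP-1 phosphorylation via AlphaLISA donor/acceptor antibody pairs after lysis and 6 hr at 25C. Cells were ATM-null patient fibroblasts ([…], hTERT), dosed 60 min, then exposed to the DSB inducer NCS for 30 min.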
# Giardia kill: Giardia lamblia killing | activity change, % at 7.66 µM, hits read low | Giardia lamblia trophozoite viability | 340,000 tested, 0.15% active | AID 540267; in the data active means activity change below about -80%; inconclusive means between about -30% and that limit;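 further: parasites exposed to compound for two days anaerobically before the ATP read; on the % scale 0 is the no-effect control and ±100 the full control effect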
#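 Killing of trophozoites was scored by loss of ATP luminescence after a 48 hrs anaerobic exposure to compounds at 37 deg C, using 100 cells per well.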
# FBPA coupling cs: counter-screen for Giardia aldolase inhibitors: coupling enzyme system; activity change, negative = inhibition, % at 58.2 µM, hits read low; AID 2472; 290,000 tested, 0.67% active; coupling enzyme system counterscreen, AmpLite Red fluorescence; in the data active means activity change below about -30%; further: on the % scale 0 is the no-effect control and ±100 the full control effect
#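 Counterscreen lacking aldolase: glyceraldehyde-3-phosphate coupling-enzyme reagent preincubated 10 min at RT with compound (at 57.5 uM final), then substrate/coupling system with AmpLite Red added; fluorescence read at 525/598 nm after 20 min RT.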
# KCNH2 WT inh: KCNH2 (human, wildtype) channel inhibition | Q12809 | U2OS, BacMam KCNH2, thallium flux FluxOr; stronger effect = lower value | activity change, % at 1.84 µM | 340,000 tested, 0.37% active;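 active means maximum activity change below -70%; inconclusive means maximum activity change between -70% and -50%; inactive means maximum activity change above -50%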; further: on the % scale 0 is the no-effect control and ±100 the full control effect
#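 U2OS cells transduced with wild-type KCNH2 virus are loaded with FluxOr dye for 45 min, and thallium flux is measured in kinetic reads before and after stimulation buffer. Rate constants are normalized to DMSO controls.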
# CXXC DNA block: inhibitors of human MLL CXXC domain-DNA interaction | 290,000 tested, 0.037% active | Potency, µM (highest dose often 115 µM), inactives show at the highest dose activity change, negative = inhibition, hits mostly inhibitors | MLL-CXXC / FITC-HOXA9 DNA fluorescence polarization; active means well fitted inhibition curve with a large enough effect in the polarisation, with a control signal flat, not every such curve was filed as active; inconclusive means small, poorly fitted or top-dose-only effect, or effect the other way, or a change in a side signal; inactive means no such curve, though single readings can be large or run the other way; the % refers to the polarisation; further: potency means the concentration at half of the fitted maximal effect
#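 Purified MLL-CXXC (added from a 7 uM solution) was preincubated 5 min at ambient with pinned compounds in 50 mM Tris-HCl pH 7.5, 50 mM NaCl, 1 mM DTT, 0.05% BSA. Fluorescein-labeled HOX-A9 DNA (50 nM solution) followed, 30 min, then polarization read.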
# Tb PFK block: blocks T. brucei phosphofructokinase; Potency, µM (doses to about 57.5 µM), for the others: at the highest dose activity, negative = inhibition, usual class: inhibitors; O15648; T. brucei PFK, ADP-Glo luminescence; AID 485367; 330,000 tested, 0.17% active;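 further: potency means the concentration at half of the fitted maximal effect; 0% = uninhibited 1x PFK enzyme wells and -100% = no-enzyme wells; nearly all actives have a fitted effect of over 60% in size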
# Target sequence (O15648 whole entry, looked up): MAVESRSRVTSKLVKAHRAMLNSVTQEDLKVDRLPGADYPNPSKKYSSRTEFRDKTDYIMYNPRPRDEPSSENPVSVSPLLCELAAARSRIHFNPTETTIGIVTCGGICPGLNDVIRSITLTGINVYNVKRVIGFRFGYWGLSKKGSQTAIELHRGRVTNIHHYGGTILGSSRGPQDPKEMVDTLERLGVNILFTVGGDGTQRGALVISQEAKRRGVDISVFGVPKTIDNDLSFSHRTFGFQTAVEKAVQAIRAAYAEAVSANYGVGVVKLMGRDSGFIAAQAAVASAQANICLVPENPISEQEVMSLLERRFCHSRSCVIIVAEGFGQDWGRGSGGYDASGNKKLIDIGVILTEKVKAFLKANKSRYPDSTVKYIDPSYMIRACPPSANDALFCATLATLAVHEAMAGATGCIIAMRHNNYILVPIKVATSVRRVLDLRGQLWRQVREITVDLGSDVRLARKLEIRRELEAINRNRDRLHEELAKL
#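 Luminescent ADP detection (ADP-Glo, two-step: ATP depletion then ADP-to-ATP conversion for luciferase) reported PFK activity after 45 min room-temperature reaction of 1.25 nM enzyme with 0.5 mM F6P and 0.1 mM ATP at pH 8.0.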
# An asterisk follows results filed as active; ? = inconclusive; . = no result given; & = joins results of further samples; [ ] = another dose, or the depositor's remark. Unless noted, the call rests on the fitted dose curve; in most records, active means well fitted curve in the direction sought with a large enough effect; inconclusive means small, poorly fitted or top-dose-only effect, or another doubt; inactive means no such curve, though single readings can be large; an effect the other way counts as inactive or inconclusive.
SMILES,Chronic BCR inh,TCR act,GALK inhibitor,AT treatment,Giardia kill,FBPA coupling cs,KCNH2 WT inh,CXXC DNA block,Tb PFK block
N#Cc1cn(CC(=O)N2CCCC2)c2ccccc12,?,1%,0%,3%,-5,1,-3,0%,4%
CC(=O)c1cccc([N+](=O)[O-])c1,-3%,2%,.,-7%,-3,.,-8,.,0%
O=c1cc(NC2CCCCC2)c2ccccc2o1,?,0%,-3%,-1%,6,4,-5,4%,-2%
CC(C)CCNC(=O)[C@@H](NC(=O)c1c(F)cccc1F)C(C)C,4%,2%,0%,-2%,7,0,-9,2%,-3%
O=C(N/N=C/c1cn(-c2cccs2)nc1-c1ccccc1)c1ccccc1Br,?,-2%[46.1 µM],0%,5%,12,0,-13,?,4%
C[C@H]1O[C@H](O[C@H]2[C@H](O)[C@@H](O)[C@@H](O[C@H]3[C@H](O)[C@@H](O)C(O)O[C@@H]3CO)O[C@@H]2CO)[C@H](O)[C@@H](O)[C@@H]1N[C@H]1C=C(CO)[C@@H](O)[C@H](O)[C@H]1O (stereo not given in full),2%,.,0%,.,.,3,.,4%,2%
Cc1cc(C)c2c(CC(=O)Nc3ccc(Cl)cn3)coc2c1,?,7%,-3%,0%,1,-1,1,12%,-6%
O=C(/C=C/NNC(=O)c1ccccc1)c1ccc([N+](=O)[O-])cc1,?,-1%,9%,-1%,-15,1,-9,7%,-4%
COc1ccc(S(=O)(=O)c2c(O)c3ccc(C(=O)Nc4ccccc4F)cc3[nH]c2=O)cc1,-9%,-7%,6%,-7%,7,15,-5,-10%,0%
CCCNC(=O)C1(S(=O)(=O)c2ccccc2)CC=CC1,-14%,-2%,.,1%,-12,-2,3,4%,-2%
Cc1cccc(C(=O)NN/C=C/C(=O)c2ccccc2)c1,?,8%,7%,-7%,-5,-9,0,-9%,1%
Cc1cccc(C)c1N(C(=O)c1ccco1)C(C(=O)NC1CCCC1)c1ccncc1 (stereo not given),7%,-1%,-3%,5%,4,0,-4,-1%,-1%
CC(C)c1nnc(NC(=O)CCC(=O)NCCc2ccccc2)s1,2%,7%,10%,-6%,-1,3,-1,0%,2%
O=C(O)c1cc(-c2ccccc2Cl)n[nH]1,7%,-1%,-1%,-1%,-6,2,-4,-2%,2%
CC1CN(C(=O)COC(=O)Cc2c(F)cccc2Cl)CC(C)O1 (stereo not given),4%,0%,.,-1%,20,.,1,.,-2%
CCOCCCN(C(=O)c1snc(C(N)=O)c1N)C(C(=O)NCCC(C)C)c1ccc(Cl)cc1 (stereo not given),1%,-4%,1%,3%,23,0,22,-1%,0%
O=C(Nc1ccccc1Oc1ccccc1)c1cccc([N+](=O)[O-])c1,-1%,3%,-1%,6%,5,4,3,-9%,0%
NC1CCN(c2cccc(Cl)n2)CC1,.,.,.,.,.,1,.,-3%,.
COc1ccccc1NS(=O)(=O)c1cccc(NC(=O)CCNC(=O)c2ccccc2OC)c1,?,.,.,-6%,?,.,3,.,3%
N#CC(C#N)=C(Nc1ccc(F)cc1)SCc1cccc(F)c1,?,-5%[46.1 µM],-3%,3%,67[activator],3,-17,-1%,-4%
O=C(CCN1C(=O)c2ccccc2C1=O)Nc1cc(F)ccc1F,?,4%,-2%,-1%,0,-2,6,19%,2%
CN1c2ccccc2Oc2c(c(=O)n(C)c(=O)n2C)C1c1cccc([N+](=O)[O-])c1 (stereo not given),-2%,3%,2%,-1%,7,2,-25,-9%,-3%
CCCCCCCC(=O)N/N=C(/C)c1c(O)cc(C)oc1=O,1%,.,1%,-5%,-10,1,-3,?,-5%
COc1ccccc1NC(=O)CC(c1ccc(OC(C)C)cc1)c1ccccc1OC (stereo not given),3%,-5%[46.1 µM],-1%,-2%,-9,-3,34,22%,1%
C/C(CC(=O)NC1CCCCC1)=N\NC(=O)COc1ccc(C)cc1Br,-17%,4%,2%,-2%,18,-1,-3,-16%,4%

# An excerpt from above in order of the Tb PFK block value, high to low.
Molecule,Tb PFK block
O=C(N/N=C/c1cn(-c2cccs2)nc1-c1ccccc1)c1ccccc1Br,4%
C[C@H]1O[C@H](O[C@H]2[C@H](O)[C@@H](O)[C@@H](O[C@H]3[C@H](O)[C@@H](O)C(O)O[C@@H]3CO)O[C@@H]2CO)[C@H](O)[C@@H](O)[C@@H]1N[C@H]1C=C(CO)[C@@H](O)[C@H](O)[C@H]1O (stereo not given in full),2%
Cc1cccc(C(=O)NN/C=C/C(=O)c2ccccc2)c1,1%
CC(=O)c1cccc([N+](=O)[O-])c1,0%
Cc1cccc(C)c1N(C(=O)c1ccco1)C(C(=O)NC1CCCC1)c1ccncc1 (stereo not given),-1%
CC(C)CCNC(=O)[C@@H](NC(=O)c1c(F)cccc1F)C(C)C,-3%
Cc1cc(C)c2c(CC(=O)Nc3ccc(Cl)cn3)coc2c1,-6%

# More structures:
SMILES,Chronic BCR inh,TCR act,GALK inhibitor,AT treatment,Giardia kill,FBPA coupling cs,KCNH2 WT inh,CXXC DNA block,Tb PFK block
Cc1cc(-c2csc(NC(=O)c3ccc(=O)[nH]c3)n2)c(C)n1Cc1ccco1,19%,-2%,.,-1%,10,-6,4,-2%,-8%
Cn1nc(C(=O)NC2CCCCC2)c2c1-c1ccccc1S(=O)(=O)C2,-1%,-14%,1%,3%,-24,.,-11,1%,4%
CCOc1ccccc1NC(=O)c1cccc(N2C(=O)CCC2=O)c1,?,-7%,4%,1%,-2,-1,-32,-4%,-3%
CC(=O)Nc1nc(C)c(-c2csc(Nc3ccc(O)cc3)n2)s1,?,2%,-3%,-8%,9,-8,-7,-14%,10%
CC(C)(C)NC(=O)CSc1nc(O)cc(=O)[nH]1,?,-5%[46.1 µM],.,-4%,17,3,2,15%,0%
c1ccc(-c2nc(CSc3nnnn3-c3ccccc3)cs2)cc1,-2%,4%,2%,25%,-12,2,-20,10%,-4%
COc1ccc(NC(=O)c2c(Cl)cnn2C)c(C)c1,1%,-8%,-2%,18%,19,1,-7,-5%,-1%
N#CC(c1ccccc1)(c1ncc(C(F)(F)F)cc1Cl)N1CCOCC1 (stereo not given),0%,-4%,2%,1%,3,1,-11,-1%,-2%
COc1ccc(/C=C/C(=O)NC(=S)N2CCCC(C(N)=O)C2)cc1 (stereo not given),4%,1%,5%,-5%,1,.,6,10%,-3%
COc1ccccc1-c1n[nH]c(=S)n1Cc1ccccc1,-1%,-18%,-3%,-3%,-1,1,-13,?,-1%
CCOC(=O)c1c(-c2ccccc2)nnn1-c1nc(OCC)nc(N2CCCCC2)n1,?,3%,1%,-6%,5,4,-5,5%,-1%
COc1ccc(/C=N/NC(=O)c2ccc(NS(=O)(=O)c3cccs3)cc2)cc1,?,-1%,.,-4%,14,.,2,.,-6%
CCOC(=O)N1CCN(C(=O)c2ccc3c(c2)NC(=O)/C(=C/c2ccccc2)S3)CC1,0%,-3%,-7%,2%,-3,-1,1,11%,-4%
Cc1ccccc1NC(=O)C1CC(Cl)=CCC1C(=O)O (stereo not given),5%,2%,5%,3%,1,6,-5,3%,-8%
Cc1ccc(OCc2nnc(SCC(=O)Nc3cc(C)on3)n2C)cc1,16%,-1%,1%,0%,-2,6,6,7%,-11%
Cc1onc(-c2ccccc2)c1C(=O)Nc1ccccc1C#N,6%,-4%&-3%,2%,-18%,15&2,0,-13&-18,2%,2%
O=C(Nc1ccc2oc(=O)ccc2c1)c1ccco1,?,8%,3%,-5%,-11,0,-13,6%,-2%
CCC1CCCCN1CCCNC(=O)CCCNC(=O)Cn1cnc2sc3c(c2c1=O)CCCC3 (stereo not given),-9%,1%,2%,4%,-25,1,-16,-3%,3%
COC(=O)c1cc(S(=O)(=O)NCC2CCN(CCc3ccc(OC)cc3)CC2)cn1C,6%,-4%,7%,4%,-26,6,46,13%,1%
CCOC(=O)N1CCN(C(=O)NC23CC4CC(CC(C4)C2)C3)CC1,-1%,-8%,-2%,-11%,-20,-1,-10,-2%,2%
N#Cc1cnn2cc(-c3ncc(C(F)(F)F)cc3Cl)cnc12,5%,-3%,0%,4%,-6,0,-8,5%,-7%
CCS(=O)(=O)n1c(Cc2cccs2)nc2ccccc21,?,-8%,.,-6%,4,.,5,.,-22%
CCC(C(=O)NCCC(C)C)N(Cc1ccccc1Cl)C(=O)c1snc(C(N)=O)c1N (stereo not given),?,.,8%,-8%,11,-2,15,-11%,-13%
C/C=C/C=C/C(=O)OCC(=O)Nc1ccc(Cl)cc1,0%,2%,1%,2%,4,-1,5,2%,-1%
O=[N+]([O-])c1cc(S(=O)(=O)N2CCOCC2)ccc1N1CCNCC1,-1%,8%,.,1%,2,.,-4,.,0%

# One compound at a time (already shown). Values in the order: Chronic BCR inh	TCR act	GALK inhibitor	AT treatment	Giardia kill	FBPA coupling cs	KCNH2 WT inh	CXXC DNA block	Tb PFK block
# CCOC(=O)N1CCN(C(=O)NC23CC4CC(CC(C4)C2)C3)CC1 is listed as -1%	-8%	-2%	-11%	-20	-1	-10	-2%	2%
# CCOc1ccccc1NC(=O)c1cccc(N2C(=O)CCC2=O)c1 is listed as ?	-7%	4%	1%	-2	-1	-32	-4%	-3%

# Screening data as filed in PubChem BioAssay.

# Not all compounds are listed; rates above refer to the full screens.
